High-throughput results (PubChem BioAssay)
RAD52 inh = RAD52 DNA annealing inhibitors, primary screen, biochemical, FRET, single point, set 2; 360,000 compounds, 0.46% hits; recombinant RAD52 DNA annealing, FRET fluorescence; inhibition, % at 18.7 µM; DNA repair protein RAD52 homolog (Homo sapiens), P43351;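 active = every replicate showing at least 50% inhibition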
GSIS activator = GLuc luminescence reporter in INS-1E cells, primary screen for activators of glucose-dependent secretion of insulin. INS-1E GLuc reporter insulin secretion, 2-3 h. activation, % at 16.6 µM. 370,000 compounds, 0.61% hits;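 active = lowest replicate activation of at least 40%, so every replicate reaches that level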;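 note: 0% = median of neutral control wells and 100% = median of IBMX positive control wells; some compounds called inactive have numbers as strong as hits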
E-sel inducer = E-selectin induction in HUVECs, primary screen, imaging, HUVEC, immunofluorescence imaging, single point; P16581; 260,000 compounds, 0.37% hits; activation, % at 7.58 µM; normalized: neutral wells 0, TNF-alpha wells 100;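 active = mean E-selectin-positive cell signal at least 10% of the positive control, reached in at least 60% of replicates, without over 20% cell loss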;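 note: in these data hits start at about 27%; measured in HUVEC primary endothelial cells; signal is the percent of cells scored E-selectin positive by PE staining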
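material = human umbilical vein endothelial cells (HUVEC), E-selectin induction | quantity = 3,000 cells/well | medium = EGM-2 growth medium on 0.1% gelatin-coated wells | technique = immunofluorescence imaging | read-out basis = % PE-positive cells | control set = TNF-alpha positive control, DMSO neutral control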
XiGFP reactiv = activators of inactive X chromosome reactivation, primary screen, imaging, XiGFP fibroblasts, GFP high-content imaging, set 2 | XiGFP mouse fibroblasts, % GFP-positive cells imaging, 3 d; cells co-treated with 5-aza-dC sensitizer; scaled so ellipticine positive control = 100% | activation, % at 7.58 µM | 360,000 compounds, 0.055% hits;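 active = mean normalized replicate activation at least 10% and every replicate at or above 10%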;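 note: 0% = median of on-plate neutral control wells and 100% = ellipticine 6 µM median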
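Material: XiGFP fibroblasts, SV40-immortalized. Buffer or medium: DMEM plus 5-aza-dC sensitizer. Compound: single concentration per compound, delivered by pin transfer. Times: 3 days compound exposure. Controls: ellipticine 6 µM.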
Active calls of the source: *; nt = not tested or not shown; & = joins results of further samples. Some of the compounds tested; the hit share may differ from the screen's.

The opening 4 compounds, ahead of the listing:
Codes: A = RAD52 inh; B = GSIS activator; C = E-sel inducer; D = XiGFP reactiv
> Nc1cc(=O)[nH]c(SCc2ccccc2)n1
  A: -12 | B: -1 | C: 0.6 | D: 0.0

> N#Cc1c(-c2ccc(Cl)cc2)c(-c2ccc(Cl)cc2)nn(CCO)c1=O
  A: -23 | B: -37 | C: 1.0 | D: 0.9

> COc1ccc(CCN(C)CCCC(C#N)(c2ccc(OC)c(OC)c2)C(C)C)cc1OC (stereo not drawn)
  A: 6 | B: nt | C: 0.3 | D: 1.0

> COc1ccc2cc([C@H](C)C(=O)O)ccc2c1
  A: -19 | B: nt | C: -0.1 | D: 0.2

The whole of this part, repeating the preview:
Codes: A = RAD52 inh; B = GSIS activator; C = E-sel inducer; D = XiGFP reactiv
> Nc1cc(=O)[nH]c(SCc2ccccc2)n1
  A: -12 | B: -1 | C: 0.6 | D: 0.0

> N#Cc1c(-c2ccc(Cl)cc2)c(-c2ccc(Cl)cc2)nn(CCO)c1=O
  A: -23 | B: -37 | C: 1.0 | D: 0.9

> COc1ccc(CCN(C)CCCC(C#N)(c2ccc(OC)c(OC)c2)C(C)C)cc1OC (stereo not drawn)
  A: 6 | B: nt | C: 0.3 | D: 1.0

> COc1ccc2cc([C@H](C)C(=O)O)ccc2c1
  A: -19 | B: nt | C: -0.1 | D: 0.2

> CN1[C@@H]2CC(OC(=O)[C@H](CO)c3ccccc3)C[C@H]1[C@@H]1O[C@@H]12 (stereo partly drawn)
  A: 8&-5&-6&-15 | B: -4 | C: 0.8&-2.4&0.4&-0.1 | D: 0.0&0.4&-0.3&0.0

> Cn1c(=O)n(C)c2cc(N3CCCCC3)c(NC(=O)c3ccccc3)cc21
  A: 2 | B: -3 | C: nt | D: 0.0

> C=C(CN(C)C)C(=O)c1cc(OC)c(OC)cc1OC
  A: -6 | B: 34 | C: 0.9 | D: 0.4

> COc1cccc(N2[C@@H](CC(=O)O)c3ccc(/C=C/C(=O)O)cc3S2(=O)=O)c1
  A: -10 | B: 15 | C: -0.2 | D: 0.3

> Nc1ncnc2c1ncn2[C@@H]1O[C@H](COP(=O)(O)OP(=O)(O)OP(=O)(O)O)[C@@H](O)[C@H]1O
  A: -7 | B: 4 | C: 2.0 | D: 0.0

> CN(C)CCOC(c1ccccc1)c1ccccc1 (tested in a mixture with another compound)
  A: -1 | B: nt | C: -0.2 | D: -0.1

Some of these compounds in order of molecular weight, lowest first:
Codes: A = RAD52 inh; B = GSIS activator; C = E-sel inducer; D = XiGFP reactiv
> Nc1cc(=O)[nH]c(SCc2ccccc2)n1
  A: -12 | B: -1 | C: 0.6 | D: 0.0

> CN1[C@@H]2CC(OC(=O)[C@H](CO)c3ccccc3)C[C@H]1[C@@H]1O[C@@H]12 (stereo partly drawn)
  A: 8&-5&-6&-15 | B: -4 | C: 0.8&-2.4&0.4&-0.1 | D: 0.0&0.4&-0.3&0.0

> COc1cccc(N2[C@@H](CC(=O)O)c3ccc(/C=C/C(=O)O)cc3S2(=O)=O)c1
  A: -10 | B: 15 | C: -0.2 | D: 0.3

More compounds:
Codes: A = RAD52 inh; B = GSIS activator; C = E-sel inducer; D = XiGFP reactiv
> O=S(=O)(c1ccc(F)cc1)n1cnc2ccccc21
  A: -10 | B: 7 | C: nt | D: 0.1

> O=C(O)c1c2c(nc3ccccc13)/C(=C/c1ccc(O)cc1)CC2
  A: -57 | B: 22 | C: -0.1 | D: 0.3

> CC(C)c1c(C(=O)Nc2ccccc2)c(-c2ccccc2)c(-c2ccc(F)cc2)n1CC[C@@H](O)C[C@@H](O)CC(=O)O
  A: -5 | B: nt | C: 2.0 | D: 0.1

> N#Cc1ccc(OCC(O)CN2CCC(C(O)(c3ccccc3)c3ccccc3)CC2)cc1 (stereo not drawn)
  A: -1 | B: -40 | C: 0.3 | D: 0.0

> COc1ccc(CC(=O)Nc2ncc([N+](=O)[O-])s2)cc1OC
  A: -8 | B: -1 | C: 0.9 | D: 0.0
